High-throughput results as filed in PubChem BioAssay.
NS1 function inh – inhibitors of influenza NS1 protein function; Potency, µM (top dose mostly 46.1 µM), for the others: top-dose activity, positive = more growth; 0.4% of 270,000 active; S. cerevisiae slowed by influenza A NS1, growth recovery by OD600; active means well fitted rising curve with a large enough effect; inconclusive means small, poorly fitted or top-dose-only effect; inactive means no such curve, though single readings can be large or run the other way; note: nearly all actives have a fitted effect of over 50% in size
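OD600 was taken as the measure of yeast growth restored by compound in an NS1-expressing S. cerevisiae strain. Cells had been washed out of glucose medium and diluted 1:100 into galactose -URA medium, pH 6.0.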
LASV entry inh – inhibitors of Lassa virus binding or cell entry | Lassa virus pseudotype entry inhibition, cell reporter; control for the full effect not named in the record | Potency, µM (top dose mostly 37.9 µM), inactives show at the highest dose activity change, negative = inhibition, actives largely listed as inhibitors | 1.2% of 300,000 active; active means well fitted inhibition curve with a large enough effect; inconclusive means small, poorly fitted or top-dose-only effect, or effect the other way; inactive means flat fitted curve, though single readings scatter; tested in HEK293 cells; note: % is set by controls: 0 for no effect and ±100 for the full control effect; nearly all actives have a fitted effect of over 50% in size; luciferase read-out
Cruzain Triton – inhibitors of Trypanosoma cruzi cruzain with detergent; P25779; purified cruzain, Z-FR-AMC fluorescence, 0.01% Triton; Potency, µM, for inactives: max response, negative = inhibition, actives largely listed as inhibitors; 0.43% of 200,000 active;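 note: plate controls were neutral wells for no effect and buffer without enzyme for full effect; nearly all actives have a fitted effect of over 40% in size; top concentration of the series not given in the record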
Target sequence (P25779 123-467 limits assumed): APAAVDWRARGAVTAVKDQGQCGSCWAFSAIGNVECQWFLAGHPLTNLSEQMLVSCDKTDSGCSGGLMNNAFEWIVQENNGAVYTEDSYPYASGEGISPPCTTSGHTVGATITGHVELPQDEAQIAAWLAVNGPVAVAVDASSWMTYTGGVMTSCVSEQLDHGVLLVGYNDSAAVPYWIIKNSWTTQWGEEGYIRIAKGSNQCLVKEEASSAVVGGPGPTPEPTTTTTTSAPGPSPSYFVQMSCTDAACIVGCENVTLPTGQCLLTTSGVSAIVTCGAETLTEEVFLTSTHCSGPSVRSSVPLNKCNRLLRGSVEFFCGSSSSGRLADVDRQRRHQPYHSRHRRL
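Enzyme 1.5 nM, Z-FR-AMC 2 uM, NaOAc 100 mM pH 5.5, DTT 5 mM, Triton X-100 0.01%; 15 min RT compound preincubation; kinetic ex360/em450, 60 s delta.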
Cruzain noTriton – cruzain (T. cruzi) inhibition without detergent | P25779 | purified cruzain, Z-FR-AMC fluorescence, no detergent | Potency, µM, for the others: max response, negative = inhibition, actives largely listed as inhibitors | 2.3% of 200,000 active | AID 1476;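 note: plate controls were enzyme without inhibitor for no effect and buffer without enzyme for full effect; nearly all actives have a fitted effect of over 40% in size; top concentration of the series not given in the record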
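Purified cruzain at 1.5 nM, pre-incubated 15 min with compound at room temperature in 100 mM sodium acetate pH 5.5, 5 mM DTT, 0.00005% Triton X-100. Reaction started with 2 uM Z-FR-AMC; AMC fluorescence increase over 60 s gives rate.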
Marburg entry inh – inhibitors of Marburg virus binding or cell entry; Marburg virus pseudotyped entry inhibition, cell reporter; control for the full effect not named in the record; about a third of the inactives were read at about 46 µM; Potency, µM (highest dose often 37.8 µM), without a hit: at the highest dose activity change, negative = inhibition, hits mostly inhibitors; 1.8% of 300,000 active; active = well fitted inhibition curve with a large enough effect; inconclusive = small, poorly fitted or top-dose-only effect, or effect the other way; inactive = flat fitted curve, though single readings scatter; tested in HEK293 cells; about a fifth of its hits are not listed in these tables; note: % is set by controls: 0 for no effect and ±100 for the full control effect; luciferase read-out
SARS PLP yeast – SARS-CoV PLP inhibition in yeast | S. cerevisiae expressing SARS-CoV PLpro, growth rescue; control for the full effect not named in the record | Potency, µM (top dose mostly 32.9 µM), without a hit: at the highest dose activity, positive = growth rescue | 0.19% of 330,000 active | AID 485353; active means well fitted rising curve with a large enough effect; inconclusive means small, poorly fitted or top-dose-only effect; inactive means no such curve, though single readings can be large or run the other way; note: 0% is about no effect; nearly all actives have a fitted effect of over 55% in size; growth read by luminescence after 48 h
RE007 growth inh – less growth of the S. pombe RE007 Vpr strain. S. pombe RE007 Vpr strain, BacTiter-Glo ATP luminescence, 24 h; control for the full effect not named in the record. Potency, µM (titrated, usually from 92.2 µM), inactives show at the highest dose activity change, negative = less growth. 0.21% of 360,000 active. AID 651644; active = well fitted falling curve with a large enough effect; inconclusive = small, poorly fitted or top-dose-only effect; inactive = no such curve, though single readings can be large or run the other way;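 note: % is set by controls: 0 for no effect and ±100 for the full control effect; nearly all actives have a fitted effect of over 50% in size; the assay follows cell death caused by Vpr and the record does not say whether a fall means rescue or toxicity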
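Fission yeast strain RE007, carrying one chromosomally integrated HIV-1 vpr copy, was seeded at OD 0.01 in PMG+AL medium with 23 nL pinned compound. After 24 h at 30 °C and 99% humidity, viability was read by BacTiter-Glo luminescence.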
StopGo reporter – FMDV 2A StopGo reporter, luciferase signal; human cells with a luciferase reporter of 2A StopGo recoding; control for the full effect not named in the record; Potency, µM (top dose mostly 57.9 µM), without a hit: top-dose signal change, negative = less light; 1.2% of 410,000 active; active = well fitted falling curve with a large enough effect; inconclusive = small, poorly fitted or top-dose-only effect; inactive = no such curve, though single readings can be large or run the other way; tested in HEK293T cells; note: % is set by controls: 0 for no effect and ±100 for the full control effect; nearly all actives have a fitted effect of over 45% in size; luciferase light after 4 h
Active calls of the source: *; ? = inconclusive; · = not tested or not shown; & = joins results of further samples; [ ] = another dose, or the depositor's remark. Unless noted, calls come from the whole dose curve; as a rule, active = well fitted curve in the direction sought with a large enough effect; inconclusive = small, poorly fitted or top-dose-only effect, or another doubt; inactive = no such curve, though single readings can be large; an effect the other way counts as inactive or inconclusive. Potency is the fitted concentration of half-maximal effect.

Value order: NS1 function inh	LASV entry inh	Cruzain Triton	Cruzain noTriton	Marburg entry inh	SARS PLP yeast	RE007 growth inh	StopGo reporter
COc1cccc(/C=N/NC(=O)c2cc3c(OC)cccc3[nH]2)c1O
 : 25%	-5%	-2.0%	?	?	-11%	8%	-9%
CC(C)(C)OC(=O)N1CCC[C@H]1C(=O)Nc1ccc(C#N)cc1
 : 3%	-2%[46.1 µM]	·	·	?	0%	115%	-9%
Cc1ccc(S(=O)(=O)Nc2cccc(-c3ccc(N4CCCCCC4)nn3)c2)cc1
 : -7%	·	·	·	·	-10%	0%	38%[activator]
CCC(C)N(C(=O)CSc1nnc(NC(C)C)s1)C1CCS(=O)(=O)C1 (configuration not stated)
 : ·	14%[46.1 µM]	·	·	14%	1%	10%	-5%
CC1(CCc2ccccc2)NC(=O)N(CC(=O)Nc2ccccc2)C1=O (configuration not stated)
 : ?	14%	·	·	14%	1%	0%	29%
CCOc1c(Br)cc(C2NS(=O)(=O)N=C3CCCCCN32)cc1OC (configuration not stated)
 : -8%	-22%	-14%	3%	?	16%	-7%	?
COc1ccc(CNC(=O)CN(C)S(=O)(=O)c2ccc(Br)s2)cc1
 : -23%	-9%	·	·	6%[46.1 µM]	2%	-12%	25%
COC(=O)CP(=O)(c1ccccc1)c1ccccc1
 : -2%	2%	5.0%	-22%	19%	8%	-3%	-10%
Cc1ccc(F)cc1S(=O)(=O)N1CCC(c2nc3ccccc3s2)CC1
 : ·	10%[46.1 µM]	4.0%	-7%	-22%[46.1 µM]	·	·	?
C=CCNC(=O)/C(=C/c1ccco1)NC(=O)c1ccc(Br)o1
 : 16%	-18%	-3.2%	1%	21%[46.1 µM]	5%	3%	14%
Cc1ccccc1Nc1nc(Nc2ccccc2C)nc(SC2=NCCS2)n1
 : 27%	?	3.7%	?	?	?	0%	·
CCCN(C(=O)Cn1ncc2c([nH]c3ccc(C)cc32)c1=O)c1ccccc1C
 : ·	11%[46.1 µM]	-1.5%	-18%	·	·	·	-30%
CCOC(=O)c1c(C)[nH]c(C(=O)N/N=C/c2cccc(OC)c2)c1C
 : 5%	?	-4.7%	12%	?	0%	-3%	15%
CCOCCCNC(=O)c1ccc(-n2c(=S)[nH]c3ccccc3c2=O)cc1
 : ·	-11%	·	·	2%[46.1 µM]	0%	-2%	-9%
O=[N+]([O-])c1ccccc1S(=O)(=O)NCc1cccnc1
 : 1%	-3%	·	·	13%[46.1 µM]	-1%	9%	19%
COc1ccc(NS(=O)(=O)c2cc(NC(=O)c3ccncc3)ccc2N2CCOCC2)cc1
 : 9%	7%	-5.3%	-2%	-20%	5%	6%	73%[activator]
O=C(Nc1ccc2oc(=O)ccc2c1)c1cccnc1
 : 0%	-4%	-13%	-4%	23%	-16%	2%	19%
CCCCC(=O)Nc1nnc(C2=COCCO2)o1
 : 2%	1%	·	·	-7%[46.1 µM]	0%	-11%	-7%
O=C1c2ccccc2NC(c2cccc(Cl)c2)N1N=C1CCCCCC1 (configuration not stated)
 : -5%	11%	1.5%	4%	9%	-6%	4%	38%[activator]
O=C(NC1CC1)C1=NOC(CNc2ncc(C(F)(F)F)cc2Cl)C1 (configuration not stated)
 : -4%	5%	-7.1%	0%	-4%	-15%	-1%	-30%
O=C(CS(=O)(=O)Cc1ccccc1)Nc1ccccc1Cl
 : -14%	4%	-2.9%	-4%	4%	10%	9%	27%
O=C(Nc1ccc2[nH]ncc2c1)c1ccc(F)cc1
 : -7%	-23%[46.1 µM]	·	·	?	0%	3%	-5%
NC(=O)c1ccc(NC(=O)CSc2nncn2-c2ccccc2)cc1
 : 9%	·	·	·	-4%[46.1 µM]	-1%	3%	3%
COc1ccccc1N1CCN(C(=O)CCc2c[nH]c3ccccc23)CC1
 : 3%	·	·	·	·	1%	-3%	-15%
Cc1ccc(OCC(=O)Nc2nnc(S(=O)(=O)N3c4ccccc4CC3C)s2)cc1 (configuration not stated)
 : ·	6%[46.1 µM]	-11%	13%	·	·	·	-15%
COc1ccccc1N(C(=O)c1snc(C(N)=O)c1N)C(C(=O)NC1CCCCC1)c1cccc(OC)c1OC (configuration not stated)
 : 0%	?	·	·	?	2%	-15%	-25%
COCCNC(=O)c1ccccc1NC(=O)COc1ccccc1
 : -22%	?	0.0%	-7%	2%	-2%	-1%	4%
CC(C)N1CCC(N2CCN(Cc3ccc4nsnc4c3)CC2CCO)CC1 (configuration not stated)
 : -3%	5%[46.1 µM]	·	·	?	0%	-5%	-2%
O=C(CSCCS(=O)(=O)c1ccc(Cl)cc1)Nc1ccccc1
 : 5%	8%	·	·	-2%	0%	2%	?
c1csc(-c2nnc(NC3CCCCC3)c3ccccc23)c1
 : -31%	-17%	-9.3%	0%	?	-2%	-11%	40µM*
Nc1cccc(-c2nc3cc(S(=O)(=O)c4ccc5oc(-c6cccc(N)c6)nc5c4)ccc3o2)c1
 : 20%	?	-1.1%	6%	?	-3%	6%	-22%
Cc1ccc(C)c(N2CCN(C(=O)C3CCN(S(=O)(=O)c4c(C)noc4C)CC3)CC2)c1
 : 26%&-3%	·	·	·	2%	-1%	-4%	?
CN(CC(=O)Nc1ccc(F)cc1)C(=O)Cn1nnc(-c2ccccc2)n1
 : 16%	0%	·	·	10%	-1%	-14%	-24%
CC1CCCCC1NC(=O)NC(=O)CCl (configuration not stated)
 : 2%	?	-0.5%	-11%	?	?	-5%	?
Clc1ccccc1N1CCN(Cc2c[nH]c3ccccc23)CC1
 : ·	-20%	·	·	?	·	-14%	-29%
O=C(CSc1ccc(Cl)cc1)Nc1cccc(-c2nc3ccccc3[nH]2)c1
 : -2%	?	?	?	?	14%	11%	7%
Cc1cc(C)n(C)c(=O)c1C#N
 : ·	19%[46.1 µM]	·	·	-6%[46.1 µM]	-1%	-10%	5%
O=C(OCn1nnc2ccccc2c1=O)c1ccc2ccccc2n1
 : 16µM*	2%	-3.5%	-8%	19%&3%	6%	18%	16%
C=CCN1C(=O)C(Cc2cccc(Cl)c2)S/C1=N/N=C/c1ccco1 (configuration not stated)
 : 9%	12%	-5.4%	0%	2%	?	9%	?
CN1C(=O)NC(=O)C2(CCCC2)C1=O
 : ·	6%[46.1 µM]	·	·	3%[46.1 µM]	·	10%	2%
CCOc1ccccc1NC(=O)CN1C(=O)CC(c2ccco2)Sc2ccccc21 (configuration not stated)
 : ·	·	-9.7%	-16%	?	·	·	-19%
CCCCN1C(=O)C(O)(c2c(C)[nH]c3ccccc23)c2cc(Br)ccc21 (configuration not stated)
 : ·	?	-10%	?	-22%[46.1 µM]	·	·	-16%
COC(=O)c1cc(C(=O)OC)cc(N2C(=O)CC(NNC(=O)c3ccccc3Br)C2=O)c1 (configuration not stated)
 : 19%	6%	-6.5%	0%	14%	1%	-18%	29%
CC1CCc2c(sc3ncnc(SCC(=O)N4CCN(C(=O)c5ccco5)CC4)c23)C1 (configuration not stated)
 : -3%	·	0.3%	-3%	·	0%	·	·
O=C(CN1CCC(n2nnc3cc(F)ccc32)CC1)NC1CCCCC1
 : -8%	15%	-3.3%	7%	10%	-3%	-11%	-14%
COc1cccc2cc(C(=O)Nc3ccc(C)cc3)c(=O)oc12
 : ·	1%[46.1 µM]	-0.7%	9%	·	·	·	33%[activator]
CCOC(=O)c1oc2ccccc2c1NC(=O)C1CCCCC1
 : 10%	12%	7.0%	-24%	11%	3%	-11%	-3%
Cc1nnc(SCC(=O)NNC(=O)c2ccccc2)n1Cc1ccccc1
 : ·	7%	·	·	17%	-1%	4%	-8%
N/C(COc1ccc(Cl)cc1Cl)=N\O
 : 4%	·	·	·	·	0%	-9%	1%
COc1ccc(C(=O)c2oc3ccc(Br)cc3c2NC(C)=O)cc1
 : ?	·	3.4%	6%	7%	0%	-5%	-11%
CCOC(=O)CNC(=O)Cn1nc(N2CCN(c3ccccc3)CC2)ccc1=O
 : ·	5%[46.1 µM]	0.1%	3%	·	·	·	-6%
COc1cc(NC(=O)c2ccccc2Cl)c2ncccc2c1
 : -29%	·	·	·	·	-1%	-15%	11%
CCOc1ccc2nc(NC(=O)CN3C(=O)NC4(CCCC4)C3=O)sc2c1
 : ·	16%	·	·	0%	-1%	18%	5%
O=c1[nH][nH]c(-c2ccccc2)c1C=Nc1ccc(Cl)cc1
 : -1%	-1%	-5.1%	6%	-17%	-8%	-19%	-21%
COc1ccc2oc(C)c(NC(C)=O)c2c1
 : 1%	-3%	3.4%	-4%	-3%	0%	4%	3%
Cc1ccc(C(=O)Nc2cc3c(cc2N2CCCCC2)n(C)c(=O)n3C)cc1
 : 1%	·	·	·	·	-1%	-10%	-25%
CCNC(=O)c1sc(-c2ccccc2)nc1C
 : -10%	6%	0.9%	-3%	15%	5%	7%	43%[activator]
O=C(NC(=S)NN1CCCCC1c1cccnc1)c1ccc(Cl)cc1Cl (configuration not stated)
 : -7%	-18%[46.1 µM]	·	·	-7%[46.1 µM]	-1%	8%	-8%

Given in markdown: entries from further up.
| SMILES | NS1 function inh | LASV entry inh | Cruzain Triton | Cruzain noTriton | Marburg entry inh | SARS PLP yeast | RE007 growth inh | StopGo reporter |
| --- | --- | --- | --- | --- | --- | --- | --- | --- |
| CCOC(=O)c1oc2ccccc2c1NC(=O)C1CCCCC1 | 10% | 12% | 7.0% | -24% | 11% | 3% | -11% | -3% |
| CCOc1ccc2nc(NC(=O)CN3C(=O)NC4(CCCC4)C3=O)sc2c1 | · | 16% | · | · | 0% | -1% | 18% | 5% |
| CC1CCCCC1NC(=O)NC(=O)CCl (configuration not stated) | 2% | ? | -0.5% | -11% | ? | ? | -5% | ? |
| CCNC(=O)c1sc(-c2ccccc2)nc1C | -10% | 6% | 0.9% | -3% | 15% | 5% | 7% | 43%[activator] |
